Screening results from PubChem.
miR-21 reporter: miR-21 reporter, rising signal; HeLa miR-21 FLuc reporter, luciferase, 48 h; Potency, µM (top dose mostly 38.3 µM), inactives show at the highest dose reporter change, positive = more light; 340,000 tested, under 10 active; active = well fitted rising curve with a large enough effect; inconclusive = small, poorly fitted or top-dose-only effect; inactive = no such curve, though single readings can be large or run the other way;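 further: % of control where 0% means no effect; miR-21 action dims this reporter so a rising signal means less miR-21 action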
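HeLa miR-21-FLuc reporter line, endogenous miR-21; 2000 cells/well in DMEM/10% FBS; compound titration up to ~40uM final, 48 h, 37 degree Celsius; luciferase detection reagent, 15 min lysis, CCD luminescence.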
Rango-impB inh: inhibitors of Rango-importin beta complex formation. Potency, µM (doses to about 92.2 µM), without a hit: at the top dose inhibition of complex formation. hit rate 0.031% among 340,000. Rango CFP/YFP FRET sensor + importin beta, 45 min. AID 540263; active = rising FRET ratio curve, often small or poorly fitted; inconclusive = mostly compound fluorescence or quenching in the first reads; inactive = flat curves in all reads;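 further: potency means the concentration at half of the fitted maximal effect; 0% = DMSO wells and 100% = buffer wells lacking importin beta; nearly all actives have a fitted effect of over 15% in size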
Target sequence (Q14974 whole entry, looked up): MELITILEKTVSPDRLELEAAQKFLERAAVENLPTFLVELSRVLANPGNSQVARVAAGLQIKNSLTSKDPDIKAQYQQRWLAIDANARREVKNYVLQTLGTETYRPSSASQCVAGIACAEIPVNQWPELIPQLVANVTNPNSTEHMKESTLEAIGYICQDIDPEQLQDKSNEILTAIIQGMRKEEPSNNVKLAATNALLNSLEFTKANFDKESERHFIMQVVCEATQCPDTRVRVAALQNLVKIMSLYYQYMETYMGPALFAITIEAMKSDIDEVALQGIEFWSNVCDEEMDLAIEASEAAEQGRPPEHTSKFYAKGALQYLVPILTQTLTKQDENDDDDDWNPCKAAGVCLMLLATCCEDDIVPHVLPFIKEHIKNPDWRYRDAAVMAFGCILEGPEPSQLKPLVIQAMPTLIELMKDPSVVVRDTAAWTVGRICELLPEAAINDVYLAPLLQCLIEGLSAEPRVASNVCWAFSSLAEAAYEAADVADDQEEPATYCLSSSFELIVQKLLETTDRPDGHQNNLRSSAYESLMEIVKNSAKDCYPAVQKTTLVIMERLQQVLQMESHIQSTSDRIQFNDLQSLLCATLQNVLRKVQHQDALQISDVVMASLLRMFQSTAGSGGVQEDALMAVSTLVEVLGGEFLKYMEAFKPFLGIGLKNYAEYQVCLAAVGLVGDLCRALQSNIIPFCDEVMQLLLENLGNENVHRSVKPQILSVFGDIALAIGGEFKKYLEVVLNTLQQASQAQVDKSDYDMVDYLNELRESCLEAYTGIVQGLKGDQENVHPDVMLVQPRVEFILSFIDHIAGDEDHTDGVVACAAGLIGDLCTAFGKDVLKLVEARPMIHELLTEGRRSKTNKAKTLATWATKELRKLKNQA
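FRET biosensor (snurportin 1 IBB flanked by EYFP and cerulean), 50 nM, with compound 5 min, then 0.125 microM importin beta in PBS, 1 mM DTT, 0.02% Tween-20, 0.1% BSA. CFP/YFP ratio read after 45 min at room temperature; pre-read flags interference.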
Rango release inh: inhibition of RanGTP-driven Rango-importin beta dissociation | hit rate 0.071% among 340,000 | O95149+P62826 | Biochemical FRET Rango-importin beta, RanGTP-induced dissociation | Potency, µM (highest dose often 46.1 µM), inactives show top-dose activity change, negative = inhibition; active means falling FRET ratio curve, often poorly fitted, with flat reads before Ran was added; inconclusive means other falling curves, or compound fluorescence or quenching; inactive means flat or rising ratio curve;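 further: potency means the concentration at half of the fitted maximal effect; % of control where 0% means no effect; nearly all actives have a fitted effect of over 45% in size; -100% = wells without RanGTP and RCC1; the record marks most hits as doubtful in a second field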
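Two FRET readings bracket the reaction: one 5 min after compound meets Rango–importin beta, another 45 min after RanGTP-RCC1 (0.6 uM Ran, 0.2 uM RCC1, 2 mM GTP) is added. Only the second defines inhibition.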
GLA inh pH 4.5: alpha-galactosidase A (human) inhibition, pH 4.5; P06280; purified enzyme, 4-MU-alpha-Gal fluorescence, pH 4.5; activity change, negative = inhibition, % at 105 µM; 230,000 tested, under 10 active; AID 1467; inconclusive = small, poorly fitted or top-dose-only inhibition, or a rising curve; inactive = flat fitted curve, though single readings scatter; no compound was filed as active;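 further: 0% = full activity with enzyme and -100% = basal without enzyme; dose as in the result columns while the protocol names 77 µM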
* marks the source's active call; other numbers are inactive results; u = inconclusive; x = not tested or not shown; & = joins results of further samples. A portion of the library; the hit share may differ from the screen's.

item	Rango-impB inh	GLA inh pH 4.5	Rango release inh	miR-21 reporter	Compound
1	-0.7%	-13	1%	6%	O=C(NC1CC2CCCC(C1)N2S(=O)(=O)c1ccccc1)c1ccccc1 (stereo not given)
2	1.7%	5	u	-2%	Cc1cccc(-n2nc(C(=O)Nc3ccccc3)n3c(=O)cc(-c4ccccc4)nc23)c1
3	0.2%	x	4%	x	COc1ccc(C(CNS(=O)(=O)c2ccc(C)cc2)N2CCN(C)CC2)cc1 (stereo not given)
4	-2.3%	2	-5%	-6%	CCn1c(COc2cccc3cccnc23)nnc1SCC(=O)OC
5	-0.2%	9	3%	u	COc1cccc2c1C(=O)c1c(O)c3c(c(O)c1C2=O)C[C@@](O)(C(=O)CO)C[C@@H]3O[C@H]1C[C@H](N)[C@H](O)[C@H](C)O1
6	0.9%	-29	10%	-4%	O=C(O)/C=C/c1cn(Cc2ccccc2)nc1-c1ccc(Cl)cc1
7	-0.7%	-3	-12%	-1%	O=C(CSc1nnc(-c2ccncc2)o1)NCc1ccccc1
8	-0.4%	-9	7%	0%	CCOC(=O)c1ccc2c(c1)nc(-c1ccc(F)cc1)c1nccn12
9	5.9%	x	-21%	3%	N#Cc1c2c(c(-c3ccccc3)[nH]c1=O)CCCC2
10	2.4%	x	-11%	x	C/C(=N\NC(=O)CN1CCN(c2ccc(F)cc2)CC1)c1ccco1

Sorted by formula weight (low to high): some entries from above
item	Rango-impB inh	GLA inh pH 4.5	Rango release inh	miR-21 reporter	Compound
9	5.9%	x	-21%	3%	N#Cc1c2c(c(-c3ccccc3)[nH]c1=O)CCCC2
7	-0.7%	-3	-12%	-1%	O=C(CSc1nnc(-c2ccncc2)o1)NCc1ccccc1
10	2.4%	x	-11%	x	C/C(=N\NC(=O)CN1CCN(c2ccc(F)cc2)CC1)c1ccco1
1	-0.7%	-13	1%	6%	O=C(NC1CC2CCCC(C1)N2S(=O)(=O)c1ccccc1)c1ccccc1 (stereo not given)
3	0.2%	x	4%	x	COc1ccc(C(CNS(=O)(=O)c2ccc(C)cc2)N2CCN(C)CC2)cc1 (stereo not given)
5	-0.2%	9	3%	u	COc1cccc2c1C(=O)c1c(O)c3c(c(O)c1C2=O)C[C@@](O)(C(=O)CO)C[C@@H]3O[C@H]1C[C@H](N)[C@H](O)[C@H](C)O1

The list continues.
item	Rango-impB inh	GLA inh pH 4.5	Rango release inh	miR-21 reporter	Compound
11	0.7%	x	2%	-3%	O=C(/C=C/c1cccc([N+](=O)[O-])c1)c1ccco1
12	-1.9%	x	-14%	x	Cc1ccc(S(=O)(=O)NCc2ccccc2)cc1C(=O)N1CC(C)CC(C)C1 (stereo not given)
13	1.0%	-4	-3%	1%	CCn1c(SCC(=O)Nc2ccccc2OC)nc(O)cc1=O
14	0.4%	3	21%	2%	Cc1onc(-c2ccccc2)c1C(=O)Nc1ccc2c(c1)OCCO2
15	2.4%	1	1%	3%	COc1ccc(Nc2nc(-c3cccc([N+](=O)[O-])c3)nc3ccccc23)c(OC)c1
16	0.0%	-1	-5%	13%	COc1cc(OC)cc(C(=O)N/N=C/c2ccc(OC)c(COc3ccc4ccccc4c3)c2)c1
17	-0.2%	-3	-16%	0%	O=C1NC(=O)C2(COC3(CCCC3)OC2)S1
18	2.8%	x	-9%	x	O=C(NCc1nc2ccccc2[nH]1)C1=C[C@@H](c2ccc(C(F)(F)F)cc2)C[C@@H](OCc2ccc(CO)cc2)O1
19	-1.0%	0	-9%	-40%	CCCC(=O)Nc1ccc(N2CCCCC2)cc1
20	u	-15	u	-1%	Cn1c(=O)c2c(ncn2CC(=O)N/N=C/C=C\c2ccccc2[N+](=O)[O-])n(C)c1=O

Whole records, quoted from the list. Values in the order: Rango-impB inh	GLA inh pH 4.5	Rango release inh	miR-21 reporter
COc1ccc(Nc2nc(-c3cccc([N+](=O)[O-])c3)nc3ccccc23)c(OC)c1 across the screens: 2.4%	1	1%	3%
O=C(/C=C/c1cccc([N+](=O)[O-])c1)c1ccco1 across the screens: 0.7%	x	2%	-3%
COc1cc(OC)cc(C(=O)N/N=C/c2ccc(OC)c(COc3ccc4ccccc4c3)c2)c1 across the screens: 0.0%	-1	-5%	13%

The results go on:
item	Rango-impB inh	GLA inh pH 4.5	Rango release inh	miR-21 reporter	Compound
21	-2.4%	-2	22%	-2%	O=C(CSc1n[nH]c(=O)[nH]c1=O)N/N=C/c1ccccc1
22	2.4%	x	14%	7%	OCC[C@@H]1C[C@H](O)[C@@H](O)[C@]2(CCc3ccccc3O2)O1
23	-0.3%	x	-2%	10%	COc1cc(C(=O)N2CCc3ccccc32)cc(OC)c1OC
24	0.7%	0	-20%	-25%	CCn1c(SCC(=O)c2ccc(Cl)s2)nnc1-c1cccs1
25	2.0%	0	-12%	11%	O=C(Nc1cccn(Cc2c(Cl)cccc2Cl)c1=O)c1c(Cl)cccc1Cl
26	2.8%	x	16%	x	CCCCCCCC(=O)Nc1cc(C(=O)NCc2ccc(C)cc2)ccc1N1CCC2(CC1)CC(c1cccc(Br)c1)=NO2
27	-3.8%	2	10%	-10%	COc1ccc(CN(C(=O)c2ccccc2OC)C2CCS(=O)(=O)C2)cc1 (stereo not given)
28	-2.3%	1	0%	-8%	CC(C)NS(=O)(=O)c1ccc(CCC(=O)NCc2ccc3c(c2)OCO3)cc1
29	-0.4%	x	7%	-3%	Cc1c(C(=O)N2CC[C@@H](N3CCC(O)CC3)[C@H](O)C2)[nH]c2ccc(Cl)cc12
30	4.3%	-3	-1%	2%	O=C(NCCNc1ccc([N+](=O)[O-])cc1C(F)(F)F)c1cccc(F)c1

item	Rango-impB inh	GLA inh pH 4.5	Rango release inh	miR-21 reporter	Compound
31	u	x	1%	x	CCCCCC1C(C(=O)OCC)C(=O)NC1(C(=O)OCC)C(=O)OCC (stereo not given)
32	-1.0%	-7	12%	-3%	Cc1nnc(SCC(=O)N2CC(=O)Nc3ccccc32)n1Cc1ccccc1
33	-2.4%	x	0%	x	O=C(CN1CCN(S(=O)(=O)c2ccccc2)CC1)Nc1ccccc1C(=O)NC1CC1
34	u	-15	-29%	-5%	Cc1ccc(S(=O)(=O)NCc2ccc3c(c2)cc(C)n3C)cc1
35	5.9%	-10	3%	-1%	COc1ccc(S(=O)(=O)N2CCOC2CNC(=O)C(=O)NCCc2ccc(OC)c(OC)c2)cc1 (stereo not given)
36	3.1%	x	-7%	5%	Cc1ccc(C(C)NC(=O)c2ccncc2)c(C)c1 (stereo not given)
37	0.2%	-5	1%	-2%	O=c1oc2ccccc2cc1C1=Nn2c(nnc2-c2cccnc2)SC1
38	0.5%	x	-2%	x	CC1(c2nnc(-c3cccc(Cl)c3)o2)CC(c2ccccc2)=NO1 (stereo not given)
39	-3.9%	x	-11%	x	CC(NC(=O)CN1C(=O)NC2(CCc3ccccc32)C1=O)c1ccccc1 (stereo not given)
40	1.4%	-12	-7%	-1%	Cc1c(Cc2ccccc2)sc(NC(=O)C(C)(C)C)c1C(N)=O

4 compounds picked at random from the list so far, as already listed:
item	Rango-impB inh	GLA inh pH 4.5	Rango release inh	miR-21 reporter	Compound
31	u	x	1%	x	CCCCCC1C(C(=O)OCC)C(=O)NC1(C(=O)OCC)C(=O)OCC (stereo not given)
35	5.9%	-10	3%	-1%	COc1ccc(S(=O)(=O)N2CCOC2CNC(=O)C(=O)NCCc2ccc(OC)c(OC)c2)cc1 (stereo not given)
34	u	-15	-29%	-5%	Cc1ccc(S(=O)(=O)NCc2ccc3c(c2)cc(C)n3C)cc1
36	3.1%	x	-7%	5%	Cc1ccc(C(C)NC(=O)c2ccncc2)c(C)c1 (stereo not given)

New compounds follow
item	Rango-impB inh	GLA inh pH 4.5	Rango release inh	miR-21 reporter	Compound
41	-0.9%	-1	-8%	0%	COc1ccc(NC(=O)c2oc3ccccc3c2NC(=O)c2ccco2)cc1
42	-1.4%	x	9%	8%	Cc1cc(NC(=O)COC(=O)C2CC(=O)N(c3ccc(C)c(Cl)c3)C2)no1 (stereo not given)
43	0.1%	7	0%	0%	O=C(NCCO)/C(=C\c1ccco1)NC(=O)c1cccs1
44	3.1%	x	7%	x	COc1ccc(S(=O)(=O)N2CCCCC2)cc1NC(=O)c1cc([N+](=O)[O-])ccc1N1CCOCC1
45	-4.4%	-2	-2%	-3%	COc1cccc(OC)c1C(=O)Nc1nnc(C(C)C)s1
46	-0.6%	8	23%	-5%	O=C(CCCn1c(=S)[nH]c2cc3c(cc2c1=O)OCO3)N1CCN(c2ccccn2)CC1
47	-1.5%	-5	-5%	-8%	COC(=O)c1cccc(S(=O)(=O)N2CCCCC2)c1
48	5.1%	x	14%	5%	CCCN1C(=O)c2ccccc2NC1c1ccc(Cl)cc1 (stereo not given)
49	-0.9%	9	9%	-3%	Cc1cccc(C)c1NC(=S)N1CCC(N(C)CC2CCCO2)CC1 (stereo not given)
50	0.4%	-12	2%	-7%	Cc1cc(O)c(NC(=S)NC(=O)c2ccc(-c3ccc(Cl)cc3)o2)cc1C

item	Rango-impB inh	GLA inh pH 4.5	Rango release inh	miR-21 reporter	Compound
51	-0.3%	-3	-6%	0%	CCOc1ccc(C(c2c(NC(=O)c3ccccc3)sc(C)c2C)N2CCN(C)CC2)cc1 (stereo not given)
52	1.7%	-17	6%	-5%	Cc1ccccc1NC(=O)c1cccc2nccnc12
53	-4.0%	-1	1%	-10%&-8%	CC(C)CCNC(=O)C(Cc1ccccc1)NS(=O)(=O)c1ccc2c(c1)c(=O)n(C)c(=O)n2C (stereo not given)
54	-0.4%	-1	10%	-4%	COc1cc(/C=C(/Sc2nnc(-c3ccc(F)cc3)o2)C(=O)O)ccc1OC(F)F
55	0.6%	x	1%	-1%	Cc1ccc(S(=O)(=O)N(C)C)cc1NC(=O)COC(=O)CCCOc1ccccc1
56	1.3%	-27	18%	-6%	COc1ccccc1NC(=O)NC1(C(=O)N2CCC(O)CC2)CCCCC1
57	-0.4%	-2	-1%	-3%	Cc1ccc(-c2nnn(CC(=O)N(CCN3CCOCC3)C(C(=O)NC(C)(C)C)c3ccc(C)o3)n2)cc1 (stereo not given)
58	u	u	u	u	CCN1CCS/C1=C/C=C/C1=[N+](CC)CCS1
59	0.6%	x	4%	x	CC(C)(C)NC(=O)CC1C[C@H](C(=O)N2CCOCC2)[C@@]2(C)c3[nH]c4ccccc4c3CCN2C1=O (stereo not given in full)
60	0.6%	4	-12%	-16%	O=C1c2ccccc2C(=O)N1OCc1ccccc1[N+](=O)[O-]

item	Rango-impB inh	GLA inh pH 4.5	Rango release inh	miR-21 reporter	Compound
61	u	-6	u	8%	CC1(C)CC(=O)C2=C(C1)OC(N)=C(C#N)[C@@H]2c1ccccc1[N+](=O)[O-]
62	3.9%	4	10%	-69%	Cc1ccc2nc(-c3ccc(N4C(=NC(=O)CCC(=O)O)SC5CS(=O)(=O)CC54)cc3)sc2c1 (stereo not given)
63	2.5%	0	1%	-5%	Cc1onc(-c2ccccc2Cl)c1C(=O)NC(=S)Nc1ccccc1F
64	1.2%	-12	10%	25%	CCCCOc1ccc(CSC(=N)N)cc1Cl
65	2.7%	x	17%	-3%	COCCN(C(=O)COC(=O)c1c(-c2ccccc2)noc1C)c1c(N)n(Cc2ccccc2)c(=O)[nH]c1=O
66	u	-7	u	6%	COc1ccc2cc(C(c3nnnn3CCc3ccccc3)N3CCCC(C)C3)c(=O)[nH]c2c1 (stereo not given)
67	u	x	6%	1%	CCOc1ccc(NC(=O)CSc2nc3ccccc3nc2N2CC(C)OC(C)C2)cc1 (stereo not given)
68	0.5%	-7	2%	-2%	O=C(Cc1cccs1)Nc1cccc(-c2nc3ccccc3o2)c1
69	5.4%	-1	-24%	-10%	O=C1c2ccccc2NC(c2cccnc2)N1c1ccccc1F (stereo not given)
